Screening results as filed in PubChem.
FEN1 inhibitor: blocks human flap endonuclease 1. 390,000 compounds, 0.35% hits. P39748. Recombinant FEN1 flap cleavage, fluorescence, 15 min. Potency, µM (titrated, usually from 114 µM), without a hit: top-dose activity change, negative = inhibition, usual class: inhibitors; also: nearly all actives have a fitted effect of over 65% in size
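Quantitative HTS format: each compound was titrated, incubated with 10 nM nuclease for 15 min at room temperature, then challenged with flap substrate at 50 nM final. Signal change over 15 min gave concentration–effect curves.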
KAT2A inh: blocks human GCN5L2 histone acetyltransferase. Q92830. GCN5L2 HAT assay, ThioGlo1 CoA-SH fluorescence. Potency, µM (top dose mostly 58.9 µM), for the others: at the highest dose activity change, negative = inhibition, usual class: inhibitors. 390,000 compounds, 0.21% hits
Target sequence (Q92830 whole entry, looked up): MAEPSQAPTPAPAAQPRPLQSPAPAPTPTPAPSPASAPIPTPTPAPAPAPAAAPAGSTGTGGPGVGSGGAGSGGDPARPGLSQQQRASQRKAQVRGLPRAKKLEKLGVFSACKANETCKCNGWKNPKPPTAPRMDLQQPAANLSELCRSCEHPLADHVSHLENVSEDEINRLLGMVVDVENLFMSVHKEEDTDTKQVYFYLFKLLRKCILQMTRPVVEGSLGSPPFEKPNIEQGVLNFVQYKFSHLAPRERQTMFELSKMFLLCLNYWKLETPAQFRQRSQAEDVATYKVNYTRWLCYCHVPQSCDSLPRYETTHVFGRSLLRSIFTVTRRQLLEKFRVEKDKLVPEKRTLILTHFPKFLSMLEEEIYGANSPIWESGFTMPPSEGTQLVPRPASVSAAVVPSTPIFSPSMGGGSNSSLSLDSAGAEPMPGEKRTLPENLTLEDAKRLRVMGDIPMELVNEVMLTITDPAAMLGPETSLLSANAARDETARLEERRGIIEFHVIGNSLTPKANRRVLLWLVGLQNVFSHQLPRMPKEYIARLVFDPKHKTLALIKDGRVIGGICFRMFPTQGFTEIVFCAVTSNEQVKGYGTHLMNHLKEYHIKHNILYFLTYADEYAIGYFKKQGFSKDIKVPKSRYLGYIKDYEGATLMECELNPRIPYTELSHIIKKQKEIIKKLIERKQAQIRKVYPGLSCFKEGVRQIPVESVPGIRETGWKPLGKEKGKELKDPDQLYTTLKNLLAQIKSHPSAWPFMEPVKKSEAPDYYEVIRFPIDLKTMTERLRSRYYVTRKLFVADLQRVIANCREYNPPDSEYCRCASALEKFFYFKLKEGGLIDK
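GCN5L2 (20 nM) in 50mM HEPES pH 7.5, 0.1mM EDTA, 0.01% Tween-20 preincubated 15 min with compounds at room temperature. Reaction started with H3(1-25) 75uM, acetyl-CoA 70uM, ThioGlo1 50uM; CoA-thiol fluorescence (Ex340/Em540) read at 0 and 20 min.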
* = called active by the depositor; u = inconclusive; x = no result given; & = joins results of further samples; [ ] = another dose, or the depositor's remark. Calls follow the shape of the dose curve; as a rule, active = well fitted curve in the direction sought with a large enough effect; inconclusive = small, poorly fitted or top-dose-only effect, or another doubt; inactive = no such curve, though single readings can be large; an effect the other way counts as inactive or inconclusive. % is scaled to controls: 0 for no effect and ±100 for the full control effect; potency is read from the fitted curve at half-maximal effect. Only part of the results is shown; most or all hits stand in other tables.

compound | FEN1 inhibitor | KAT2A inh
O=C(CSc1ccc(-c2ccncc2)nn1)c1ccccc1 | -3% | -1%
COc1ccc2c(COC(=O)[C@H](C)NS(=O)(=O)c3ccccc3F)cc(=O)oc2c1 | -18% | -6%
O=C(Cn1ccc(NC(=O)OCc2ccccc2)nc1=O)NCCCn1ccnc1 | -3% | -3%
O=C(O)CSc1nnc(-c2cccc(S(=O)(=O)N3CCOCC3)c2)n1-c1cccc(Cl)c1 | 3% | -4%
CC(NC(=O)Cn1c(=O)oc2cc(S(=O)(=O)N3CCCC3)ccc21)c1ccccc1 (configuration not stated) | 1% | -5%
CCC(C)(C)NC(=O)CN(C(=O)CCC(=O)Nc1ccccn1)c1ccc2c(c1)OCO2 | 5% | -4%
CC(=O)N(Cc1cccs1)C1CCOC(C)(C)C1 (configuration not stated) | -6% | x
Nc1nnc(CSc2ccc(Cl)cc2)s1 | 0% | -6%
Cc1ccccc1CN1CCC(CNc2ncnc3onc(-c4ccc(F)cc4)c23)CC1 | 0% | 1%
O=C(COC(=O)C12CC3CC(CC(Cl)(C3)C1)C2)N1CCCCC1 | -13% | -5%
Cc1nn(C)cc1/C=N\NC(=O)c1ccc(Cn2cc(Cl)cn2)cc1 | 0% | -2%
COc1ccccc1CC(NC(C)=O)C(=O)NC1CCN(C(=O)Nc2cccc(F)c2)CC1 (configuration not stated) | 7% | -9%
CCOc1ccc(NC(=O)CSc2nc(N)c(-c3ccccc3)c(=O)[nH]2)cc1 | 1% | 1%
COc1ccc(C(=O)NC(CCSC)C(=O)NC2CC2)cc1 (configuration not stated) | 8% | -1%
COc1cccc2c1cc1c(=O)n(CC(=O)NCc3ccco3)nc(C)n12 | 19% | -6%
N#CNC(=Nc1cccc(F)c1)SCc1ccccc1 | -1% | -1%
NS(=O)(=O)c1ccc(N2CCN(C(=O)c3ccco3)CC2)nc1 | 5% | -2%
CN(C)S(=O)(=O)c1ccc(Cl)c(NC(=O)CNC2(C)CCS(=O)(=O)C2)c1 (configuration not stated) | -13% | -1%
COCCc1nc2ccc(C(=O)N(C)Cc3cccc(-n4cccn4)c3)cc2o1 | -7% | -2%
CC(C)c1ccc2c(c1)CCC1C(C)(CN)CCCC21C (configuration not stated) | -7% | 8%

Continued.
compound | FEN1 inhibitor | KAT2A inh
O=C(NCCN1CCOCC1)C(=O)NCC1OCCN1S(=O)(=O)c1ccc(F)cc1 (configuration not stated) | 17% | 0%
COc1cccc(CNC(=O)Cn2nc3c(cc2=O)CCCC3)c1OC | -14% | 2%
C[C@H](CO)N1C[C@H](C)[C@@H](CN(C)Cc2ccncc2)Oc2c(NS(=O)(=O)c3ccc(Cl)cc3)cccc2C1=O | 1% | -1%
O=C(NCc1ccc2c(c1)OCO2)c1ccc(CS(=O)(=O)c2cccc(C(F)(F)F)c2)o1 | -12% | -7%
COc1ccc(Cn2nnnc2C(c2cccs2)N2CCCCCC2)cc1 (configuration not stated) | -13% | -8%
O=C(CSc1nncn1-c1cccnc1)Nc1ccccc1C(F)(F)F | 11% | -1%
CCC(O)C(C)(C)C (configuration not stated) | 16% | -9%
CC(Cc1cccnc1)NC(=O)c1ccccc1OC1CCN(S(C)(=O)=O)CC1 (configuration not stated) | 0% | 14%
COc1ccc(C)cc1N1CC(C(=O)Nc2ccccc2C(=O)NC2CC2)CC1=O (configuration not stated) | 1% | 2%
CCN(CC)S(=O)(=O)c1cc([N+](=O)[O-])ccc1N1CCC(C(N)=O)CC1 | 0% | -3%
CCOc1ccc(CN(C)CCc2ccccn2)cc1 | -1% | -13%
O=C(CSc1ncnc2c1cnn2-c1ccccc1)Nc1ccccc1 | -2% | 2%
Cc1c(C(=O)N2CCCC2)oc2c1-c1nn(CC(=O)NCCCOC(C)C)cc1CC2 | 4%&-4% | -19%&-6%
O=C(c1oc(=O)c2ccccc2c1-c1ccccc1)N1CCOCC1 | 1% | -2%
COc1cc(/C=C/C(=O)OCC(=O)NCCCc2ccccc2)cc(OC)c1OC | 6% | -15%
COc1ccccc1OCCCC(=O)NCc1ccco1 | -4% | -3%
CCOC(=O)N1CCN(c2ccc(N3C(=O)CCCC3=O)cc2[N+](=O)[O-])CC1 | 3% | -2%
CCOc1ccc(CNC(=S)N/N=C/c2ccncc2)cc1 | 2% | -1%
CCCCN(C)CCNC(=O)CN1C(=O)CSc2ccc(S(=O)(=O)N3CCCCC3)cc21 | -3%&4% | -3%&2%
Cc1sc(N2C(=O)C3C(C2=O)[C@H]2C=C[C@@H]3C2)c(C#N)c1C (some centres not stated) | -3% | -2%

At a glance, six of the compounds above.
compound | FEN1 inhibitor | KAT2A inh
COc1ccc(Cn2nnnc2C(c2cccs2)N2CCCCCC2)cc1 (configuration not stated) | -13% | -8%
O=C(CSc1nncn1-c1cccnc1)Nc1ccccc1C(F)(F)F | 11% | -1%
CCC(O)C(C)(C)C (configuration not stated) | 16% | -9%
CC(Cc1cccnc1)NC(=O)c1ccccc1OC1CCN(S(C)(=O)=O)CC1 (configuration not stated) | 0% | 14%
COc1ccc(C)cc1N1CC(C(=O)Nc2ccccc2C(=O)NC2CC2)CC1=O (configuration not stated) | 1% | 2%
CCN(CC)S(=O)(=O)c1cc([N+](=O)[O-])ccc1N1CCC(C(N)=O)CC1 | 0% | -3%

Further compounds:
compound | FEN1 inhibitor | KAT2A inh
CCc1ccc(NC(=O)CSc2nc(=O)n(Cc3ccncc3)c3c2CCC3)cc1 | 6% | -2%
COc1cc(OC)c(C(=O)OCC(=O)N(Cc2ccccc2)C(C)(C)C)cc1OC | 2% | -9%
O=C(CSc1nc2ccccc2n1CC(=O)N1CCCC1)NCc1ccc2c(c1)OCO2 | -11% | 0%
COc1ccccc1C(=O)Nc1ccc2[nH]ncc2c1 | -6% | -3%
CCCCNC(=O)/C(=C/c1ccccc1)NC(C)=O | 3% | 3%
COc1ccccc1N1CCN(C(c2ccc(C)cc2)c2nnnn2C(C)C)CC1 (configuration not stated) | 1% | -5%
CC(C)n1nc(C(=O)NC2CCCCCC2)c2ccccc2c1=O | 3% | -11%
CCN(c1ccc(Cl)cc1)S(=O)(=O)c1nnc(NC(=O)c2ccco2)s1 | 0% | -1%
CCOC(=O)c1nnc(-c2ccccc2)nc1Sc1ccccc1Cl | -4% | -4%
CN(C)S(=O)(=O)c1ccc(Cl)c(NC(=O)COC(=O)c2cc(-c3ccccc3)nc3ccccc23)c1 | 5% | -3%
CCOc1ccccc1NC(=O)c1cc2cc(C)ccc2n1C | 15% | -13%
O=C(NCc1ccccn1)c1ccc(OC2CCN(Cc3ccccc3)CC2)cc1 | 0% | 1%
CC1CCN(S(=O)(=O)c2ccc(Cl)s2)CC1 | 11% | -14%
Cc1ccc(Cl)cc1NC(=O)CCC(=O)NCc1ccco1 | -3% | -7%
CCc1ccc(-c2nc(CSCC(=O)NC3CC3)c(C)o2)cc1 | 2% | -3%
CN(C)c1cccc2c(S(=O)(=O)Nc3ccccn3)cccc12 | 1% | -6%
COc1ccc(C(=O)O/N=C(\N)Cc2ccc(Cl)cc2Cl)cc1OC | -6% | -5%
COc1ccc(-c2nn(C)c3sc(C(=O)N4CCN(c5cccc(C)c5C)CC4)cc23)cc1OC | 19% | -4%
CC1CCc2sc(C(=O)NN=C3CCC(c4ccccc4)CC3)cc2C1 (configuration not stated) | -12% | 0%
CCC(CC)C(=O)OCC(=O)Nc1ccc(S(=O)(=O)N2CCOCC2)cc1OC | 10% | -7%[0.501 µM]

Filtered by structure, the compounds so far containing a nitro group on carbon
compound | FEN1 inhibitor | KAT2A inh
CCN(CC)S(=O)(=O)c1cc([N+](=O)[O-])ccc1N1CCC(C(N)=O)CC1 | 0% | -3%
CCOC(=O)N1CCN(c2ccc(N3C(=O)CCCC3=O)cc2[N+](=O)[O-])CC1 | 3% | -2%

(cont.)
Values in the order – FEN1 inhibitor, KAT2A inh
> CCCC(=O)Nc1cc(=O)[nH]c2ncnn12
  -5%, -5%
> Cc1nn(-c2cccc(Cl)c2)c2nc(-c3ccncc3)cc(C(=O)N3CCOCC3)c12
  u, -15%
> Cc1ccn2c(Nc3ccc(C(C)C)cc3)c(-c3ccsc3)nc2c1
  -3%, -14%
> CC(=O)N1CCN(c2ccc(NC(=O)c3ccc(C)cc3)cc2)CC1
  7%, 5%
> CCCC1(c2ccccc2)NC(=O)NC1=O (configuration not stated)
  -2%, -5%
> O=C(CN1C(=O)CC(c2ccco2)Sc2ccccc21)NCc1ccc2c(c1)OCO2 (configuration not stated)
  -15%, 1%
> CSc1ncc(Cl)c(C(=O)NCc2ccc3c(c2)OCO3)n1
  4%, -11%
> Cc1ccc(CNC(=O)C2CCC(=O)N(CCc3cccc(F)c3)C2)cc1 (configuration not stated)
  2%, 0%
> Cc1ccccc1N=C(NOCc1ccc(Cl)cc1Cl)c1nonc1N
  -2%, -3%[0.501 µM]
> CN(C(=S)NC(=O)c1ccccc1Br)C1CCCCC1
  0%, -6%
> O=C(COc1ccc(Br)cc1Cl)NC(=S)Nc1ccccn1
  -12%, -29%
> Cc1ccc(NC(=O)CS(=O)CC(=O)NCCCN(C)c2ccccc2)cc1 (configuration not stated)
  -14%, -2%
> O=C(C1CCN(S(=O)(=O)c2cccs2)CC1)N1CCN(c2ccccc2)CC1
  -4%, -7%
> CN(Cc1ccccc1F)C(=O)c1sccc1-c1ccccc1
  -21%, -2%
> Nc1cc(N2CCOCC2)c(Cl)cc1[N+](=O)[O-]
  3%, -2%

Additional entries follow:
Values in the order – FEN1 inhibitor, KAT2A inh
> Cc1cc(=O)oc(C)c1C(=O)OC(C(=O)c1ccccc1)c1ccccc1 (configuration not stated)
  1%, -6%
> Cc1ccc(C)c(N2CCN(C(=O)c3cc4c(C)nc5ccccc5c4o3)CC2)c1
  -8%, -9%
> CCCCNC(=O)c1cnn2c(C)c(Cc3c(C)cc(C)cc3C)c(C)nc12
  -19%, -1%
> CC1CCCC(C)N1C(=C(Cl)Cl)C(=C1SCCS1)[N+](=O)[O-] (configuration not stated)
  -6%, -13%
> CC1(C)CC2C1CCC1(C)OC1CCC2(C)O (configuration not stated)
  x, -4%
> O=C(CN1C(=O)NC2(CCCC2)C1=O)N1CCN(S(=O)(=O)c2ccc(Cl)c(C(F)(F)F)c2)CC1
  -8%, 2%
> Cc1cccc(OCCN2C(=O)C(=O)c3cccc(C)c32)c1
  2%, -2%
> Cc1nc(C(C)N(C)Cc2c(C(=O)N3CCCCC3)nc3c(C)cccn23)c(C)s1 (configuration not stated)
  -13%, -1%
> COc1ccccc1Nc1nc(-c2ccccc2F)nc2ccccc12
  -21%, 1%
> CCOC(=O)c1cc(C)n(CCCN2CCOCC2)c1C
  -6%, 0%
> CC(C)(C)C(=O)COC(=O)CNC(=O)c1ccc(Oc2ccccc2)cc1
  -17%, -4%
> c1ccc2cc(C3CCCCC3)ncc2c1
  -7%, 0%
> Cc1nc(NC(=O)CSc2nnc(C3CC3)n2N)c(Cl)cc1Cl
  -2%, 0%
> Cc1ccccc1OCCC(=O)OCC(=O)N(C)c1c(N)n(Cc2ccccc2)c(=O)[nH]c1=O
  7%, -5%
> COCCCN1C(=O)C(O)=C(C(=O)c2ccco2)C1c1ccccc1 (configuration not stated)
  9%, -10%

Later entries
Values in the order – FEN1 inhibitor, KAT2A inh
> C=CCNC(=S)N/N=C/c1ccc(C(C)(C)C)cc1
  -22%, -13%
> Fc1ccc(Nc2nc(-c3ccncc3)cs2)cc1
  1%, -7%
> CNS(=O)(=O)c1cccc(C(=O)NC2CCCc3ccccc32)c1 (configuration not stated)
  2%, -1%
> CN(C)S(=O)(=O)c1cccc(NC(=O)c2cc3c(=O)n4ccccc4nc3s2)c1
  -2%, 6%
> CC(C)(C)CC(=O)N[C@@H](Cc1ccccc1)c1nc2ccccc2[nH]1
  1%, -2%
> COc1ccc(/C=C/C(=O)NCC(=O)N/N=C/c2cccnc2)cc1
  10%, -11%
> COc1ccc(CCN2CC(C(=O)NCC(c3ccccc3)N(C)C)CC2=O)cc1OC (configuration not stated)
  3%, -4%
> Cc1ccc(S(=O)(=O)N2CCC3(CC2)OCCN3S(=O)(=O)c2cccs2)cc1
  -2%, -3%
> Cc1ccccc1C(=O)Nc1nnc(SCc2cc(=O)c3c(C)ccc(C)c3[nH]2)s1
  11%, u
> Cc1ccc(C(=O)CSc2nnc(COc3ccc(C#N)cc3)n2-c2ccccc2)cc1
  1%, -10%
> CCOC(=O)c1cc(C(C)=O)c(=O)n(C)c1N
  9%, 2%
> CCOc1ccc(C2C(C(=O)c3ccco3)=C(O)C(=O)N2CCCn2ccnc2)cc1OC (configuration not stated)
  -3%, -5%
> CCCOC(=O)NC(CC)COC(=O)Nc1cc(C)ccc1C (configuration not stated)
  -1%, -2%
> COc1ccc(NC(=O)C2CSC3c4ccccc4C(=O)N23)cc1 (configuration not stated)
  -12%, -5%
> Cc1ccccc1OCc1nnc(SCC(=O)O)n1-c1cccc(Cl)c1
  15%, -11%
> O=C(c1ccc(NC2=NC3CS(=O)(=O)CC3S2)cc1)N1CCN(Cc2ccccc2)CC1 (configuration not stated)
  15%, -2%
> COc1ccc(Cl)cc1NC(=O)Cn1c(=O)c2ccccc2n2nncc12
  -17%, -1%
